ClpP mod = qHTS Assay for Activators of ClpP | ATP-dependent Clp protease proteolytic subunit (Bacillus subtilis (strain 168)), P80244 | purified B. subtilis ClpP, FRET peptide cleavage, 20 min | Potency, µM (highest dose often 57.5 µM), without a hit: at the highest dose activity change, negative = active | 340,000 tested, 1.9% active | AID 651965, 2013; active = well fitted falling curve with a large enough effect; inconclusive = small, poorly fitted or top-dose-only effect; inactive = no such curve, though single readings can be large or run the other way; also: potency is read from the fitted curve at half-maximal effect; the source files actives as falling curves though it sought activators and does not explain the sign; nearly all actives have a fitted effect of over 65% in size; many hits overshoot -100%
Target sequence (P80244 whole entry, looked up): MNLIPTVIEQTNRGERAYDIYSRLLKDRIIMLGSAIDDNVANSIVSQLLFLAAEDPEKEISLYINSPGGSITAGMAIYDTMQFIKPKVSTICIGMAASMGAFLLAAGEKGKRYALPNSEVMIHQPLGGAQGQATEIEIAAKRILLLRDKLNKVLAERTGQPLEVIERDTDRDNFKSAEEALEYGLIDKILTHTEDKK
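FRET quenching reversal measured ClpP activation: 10 microg/mL B. subtilis ClpP at pH 8 with the FRET-FV decapeptide, read at 430 nm after 320 nm excitation. The 20-min minus 0-min signal was scaled between DMSO/no-enzyme wells and ADEP (5.8 microM final).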
Menin-MLL FL inh = inhibitors of human menin-MLL interaction, wild-type MLL peptide; Fluorescence polarization, fluorescein-MLL peptide displacement from menin; FP activity change, % at 61.4 µM; 290,000 tested, under 10 active; inconclusive = falling polarisation curve, or a change in total fluorescence; inactive = total fluorescence flat and polarisation flat or rising; no compound was filed as active; the % refers to the polarisation; negative = inhibition;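 also: % of control where 0% means no effect; inhibitors lower the polarisation; unlabelled MLL peptide was the positive control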
TRPV1 potentiator = potentiators of human vanilloid receptor 1 (TRPV1); 320,000 tested, 0.02% active; potentiation, % at 8.33 µM; Q8NER1; TRPV1-expressing cells, Fluo-8 calcium influx, capsaicin EC20 potentiation; host cell line not named in the record; control for the full effect not named in the record; active means potentiation above 80%; inconclusive means 30% to 80%; inactive means below 30%; also: 0% is about no effect
Target sequence (Q8NER1 whole entry, looked up): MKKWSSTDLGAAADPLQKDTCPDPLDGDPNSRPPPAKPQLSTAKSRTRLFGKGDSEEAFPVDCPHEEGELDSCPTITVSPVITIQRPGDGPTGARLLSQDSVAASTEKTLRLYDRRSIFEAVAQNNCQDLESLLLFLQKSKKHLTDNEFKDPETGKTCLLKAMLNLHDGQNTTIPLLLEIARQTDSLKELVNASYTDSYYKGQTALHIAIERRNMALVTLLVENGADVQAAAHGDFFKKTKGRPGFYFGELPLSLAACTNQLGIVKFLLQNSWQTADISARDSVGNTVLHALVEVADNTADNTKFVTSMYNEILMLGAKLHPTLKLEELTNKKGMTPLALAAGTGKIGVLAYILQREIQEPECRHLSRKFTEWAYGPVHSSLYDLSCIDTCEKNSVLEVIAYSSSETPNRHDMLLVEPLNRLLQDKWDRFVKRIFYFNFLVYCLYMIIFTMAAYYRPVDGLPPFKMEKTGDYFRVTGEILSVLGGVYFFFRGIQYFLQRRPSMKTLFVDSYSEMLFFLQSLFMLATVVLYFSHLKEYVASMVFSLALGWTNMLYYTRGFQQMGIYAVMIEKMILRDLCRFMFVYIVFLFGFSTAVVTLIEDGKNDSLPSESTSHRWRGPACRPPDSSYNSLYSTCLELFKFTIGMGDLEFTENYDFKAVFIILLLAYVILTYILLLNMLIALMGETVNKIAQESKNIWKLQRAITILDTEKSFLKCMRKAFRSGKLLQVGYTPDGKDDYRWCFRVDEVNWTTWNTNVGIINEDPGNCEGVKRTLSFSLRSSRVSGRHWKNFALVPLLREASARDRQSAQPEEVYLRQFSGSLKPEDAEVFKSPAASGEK
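Cells expressing TRPV1 were dye-loaded with Fluo-8 and read kinetically: 10 s baseline, 3 min after compound (agonist portion), then 2 min after EC20 capsaicin (allosteric enhancer portion). Calcium-bound dye fluorescence at 480/520 nm.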
gsp agonist = gsp mutant agonism | gsp mutant cells, cAMP HTRF, 30 min; control for the full effect not named in the record | Potency, µM (highest dose often 76.9 µM), for inactives: at the top dose activation (cAMP increase), most hits filed as activators | 340,000 tested, 0.13% active | AID 624287; active = well fitted activation curve with a large enough effect; inconclusive = small, poorly fitted or top-dose-only effect, or another doubt; inactive = no such curve, though single readings can be large or run the other way; cell line not stated here;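 also: phosphodiesterase inhibitor Ro 20-1724 added with compounds to block cAMP breakdown; potency is read from the fitted curve at half-maximal effect; nearly all actives have a fitted effect of over 60% in size; about a fifth of the inactives were tested at one dose only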
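Cells in DMEM/10% FBS with G418 were pretreated with compounds in DMSO plus […] (300 uM stock) for 30 min at 37C. cAMP was measured by HTRF (cAMP-d2 plus anti-cAMP antibody-K) after 30 min at room temperature.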
D2 PAM = positive allosteric modulators of human D2 dopamine receptor; DiscoveRx D2 beta-arrestin cells, luminescence, 90 min; 100% = 57 uM dopamine signal; potentiation, % (concentration not given with the values); 360,000 tested, 0.23% active; AID 624464; active = potentiation of 50% or more; inconclusive = 30% to 50%; inactive = 30% or less;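 also: compound concentration not given in the record; tested on top of an EC20 dose of dopamine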
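D2 cells co-treated with compound plus 50 nM dopamine (EC20) for 90 min at 37 deg C to detect potentiation. Beta-arrestin recruitment was read as enzyme-fragment luminescence after 1 h at ambient temperature. Full response was set by 57 uM dopamine.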
gsp antag = gsp mutant antagonism; gsp-mutant cells, cAMP HTRF, 30 min; control for the full effect not named in the record; Potency, µM (top dose mostly 76.9 µM), inactives show at the highest dose activity change, negative = inhibition, hits mostly inhibitors; 340,000 tested, 0.4% active; active = falling curve of any shape with a large fitted effect; inconclusive = falling curve, mostly with a smaller effect; inactive = flat or rising curve; cell line not stated here;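 also: intracellular cAMP measured with PDE inhibitor Ro 20-1724 present during compound exposure; potency is read from the fitted curve at half-maximal effect; % is scaled to controls: 0 for no effect and ±100 for the full control effect; nearly all actives have a fitted effect of over 65% in size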
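HTRF cAMP measurement after 30 min RT detection following 30 min, 37C compound treatment alongside […] (added as 300 uM solution) in G418-selected cells seeded at 2000/well and grown 16–24 h.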
Sfp PPTase inh = inhibitors of Bacillus subtilis Sfp phosphopantetheinyl transferase | Potency, µM, for the others: max response, negative = inhibition, actives largely listed as inhibitors | AID 1490 | Biochemical Sfp PPTase activity, qHTS | 310,000 tested, 3.5% active; active = well fitted inhibition curve with a large enough effect; inconclusive = small, poorly fitted or top-dose-only effect, or another doubt; inactive = no such curve, though single readings can be large or run the other way;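 also: the enzyme is Sfp with the accession as filed and its product quenches rhodamine fluorescence; potency is read from the fitted curve at half-maximal effect; 0% = enzyme reaction without inhibitor and -100% = no enzyme wells; top concentration of the series not given in the record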
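Fluorescence-quenching assay with 15 nM Sfp, 5 uM rhodamine-CoA and 12.5 uM BHQ-2-labelled ybbR peptide in pH 7.6 Hepes/MgCl2 buffer. Enzyme was pre-incubated with compound for 15 min at room temperature. Rate was taken from the 30-min fluorescence change (525/598 nm).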
* marks the source's active call; other numbers are inactive results; ? = inconclusive; . = no result given; [ ] = remark or other dose.

SMILES	ClpP mod	Menin-MLL FL inh	TRPV1 potentiator	gsp agonist	D2 PAM	gsp antag	Sfp PPTase inh
O=C(NCCCc1ccccc1)c1cc(COc2c(F)cccc2F)on1	-0.9%	1.0	-15.0	15.8%	-11.1	-3.8%	5.5%
COC(=O)c1ccccc1NC(=O)CSc1nnnn1-c1ccc(C)cc1C	-3.8%	-0.8	13.5	-22.7%	-8.2	?	-5.6%
CCN1C(=N)N(c2ccccc2)C(=O)C(CC)(CC)C1=O	.	.	.	19.0%	0.8	6.4%	.
CNC[C@H](CC1CCCCC1)NC[C@H](NCCC1CCCC1)[C@H](C)O	2.3%	-9.5	18.7	11.9%	-21.7	15.3%	34.8%[activator]
C[C@]12c3[nH]c4cc(-c5ccco5)ccc4c3CCN1C(=O)[C@@H](CC(=O)NCCN1CCOCC1)C[C@@H]2C(=O)N1CCOCC1	3.5%	.	.	.	-1.5	1.8%	.
c1ccc(N2CCN(CCc3nnc4n3CCCCC4)CC2)cc1	0.8%	0.9	13.1	-15.1%	-20.1	-4.2%	-2.6%
CCOC(=O)C1=C(C)N(C[C@@H]2CC[C@@H](Cc3ccc(-c4ccccc4)cc3)O2)C(=O)NC1c1ccc(-c2ccccc2)cc1 (stereo not given in full)	-2.3%	.	.	.	0.3	1.8%	.
O=C(N=C1c2ccccc2CN1c1cccc(Cl)c1)c1cccnc1	-1.4%	2.6	4.0	-14.8%	-4.0	-24.5%	1.9%
COCCn1c(=S)[nH]c2cc(C(=O)N3CCc4ccccc43)ccc2c1=O	-1.2%	0.4	-7.5	-15.1%	-3.6	?	-5.8%
COc1ccc(-c2[nH]ncc2-c2ccc(Cl)cc2)c(O)c1	-6.5%	-0.5	-8.3	0.3%	8.5	-3.5%	-1.4%
O=C1C2CC=CCC2C(=O)N1c1cccc(OS(=O)(=O)c2ccc3ccccc3c2)c1 (stereo not given)	-6.4%	5.2	12.3	-3.0%	10.1	?	14.2%
CCOC(=O)CC(=O)NC1(Cc2ccc(O)cc2)CCCCC1	0.6%	-0.5	-15.1	?	-1.5	7.3%	21.0%

Random excerpt: 7 compounds from above, in no set order.
SMILES	ClpP mod	Menin-MLL FL inh	TRPV1 potentiator	gsp agonist	D2 PAM	gsp antag	Sfp PPTase inh
COCCn1c(=S)[nH]c2cc(C(=O)N3CCc4ccccc43)ccc2c1=O	-1.2%	0.4	-7.5	-15.1%	-3.6	?	-5.8%
COc1ccc(-c2[nH]ncc2-c2ccc(Cl)cc2)c(O)c1	-6.5%	-0.5	-8.3	0.3%	8.5	-3.5%	-1.4%
c1ccc(N2CCN(CCc3nnc4n3CCCCC4)CC2)cc1	0.8%	0.9	13.1	-15.1%	-20.1	-4.2%	-2.6%
CNC[C@H](CC1CCCCC1)NC[C@H](NCCC1CCCC1)[C@H](C)O	2.3%	-9.5	18.7	11.9%	-21.7	15.3%	34.8%[activator]
O=C1C2CC=CCC2C(=O)N1c1cccc(OS(=O)(=O)c2ccc3ccccc3c2)c1 (stereo not given)	-6.4%	5.2	12.3	-3.0%	10.1	?	14.2%
COC(=O)c1ccccc1NC(=O)CSc1nnnn1-c1ccc(C)cc1C	-3.8%	-0.8	13.5	-22.7%	-8.2	?	-5.6%
CCN1C(=N)N(c2ccccc2)C(=O)C(CC)(CC)C1=O	.	.	.	19.0%	0.8	6.4%	.

The list goes on.
SMILES	ClpP mod	Menin-MLL FL inh	TRPV1 potentiator	gsp agonist	D2 PAM	gsp antag	Sfp PPTase inh
OCCn1nc(-c2ccccc2)cc1-c1ccccc1	3.0%	0.8	-15.8	-7.1%	-6.1	3.1%	4.3%
Cc1nc2c(=O)n(-c3ccc(F)cc3F)nc(C)c2s1	-2.6%	3.2	10.4	-27.7%	-20.6	1.2%	9.6%
Cc1cccc(C(=O)Oc2ccccc2/C=N/NC(=O)c2ccc(NC(=O)C(C)(C)C)cc2)c1	-6.2%	4.2	15.7	-0.8%	-10.3	-7.0%	19.7%
CCOCCCN(C)C1CCN(C(=O)c2oc3ccccc3c2NC(=O)c2ccc(F)cc2)CC1	-6.6%	.	4.9	-7.4%	-46.2	4.6%	8.9%
O=C(NCc1nc2ccccc2[nH]1)C1=C[C@H](C2CC2)C[C@H](OCc2ccc(CO)cc2)O1	-4.1%	0.2	-16.3	.	-14.3	-2.7%	-1.4%
C=C(C(=O)c1ccccc1)C(C(=C)C(=O)c1ccccc1)c1ccc(OC)cc1	-0.3%	1.8	?	?	-16.0	-7.4%	13.2%
CCOC(=O)C1=C(O)C(=O)N(c2ccc(S(N)(=O)=O)cc2)C1c1ccc(Br)cc1 (stereo not given)	.	6.1	-13.9	?	1.9	8.3%	-3.7%
CCN1C(=O)[C@H]2[C@@H](c3ccc(C)cc3)N3C(=O)N(c4ccc(OC)cc4)C(=O)[C@@]3(Cc3ccccc3)[C@H]2C1=O	1.2%	.	?	.	-7.7	0.6%	.
CCCCNC(=O)CC1NCCNC1=O (stereo not given)	.	-0.1	-1.7	1.3%[15.4 µM]	-11.5	.	7.7%
N#Cc1ccc(CSc2nnc(-c3cnccn3)o2)cc1	-12.9%	-1.2	0.6	32.8%	-1.3	12.8%	17.2%
CCc1ccccc1NC(=O)c1ccc2c(O)c(S(=O)(=O)c3ccc(OC)cc3)c(=O)[nH]c2c1	-15.2%	0.4	2.2	2.2%	-15.5	3.0%	23.5%
COc1cc(OC)c(S(=O)(=O)Nc2ccccc2N2CCCCC2)cc1NC(C)=O	0.5%	4.3	-3.0	-5.8%	-12.3	-1.5%	12.6%
Cc1ccc(S(=O)(=O)N(C)CC(=O)Nc2cccnc2)cc1	.	1.1	-1.3	-29.9%	-7.2	5.5%	15.1%
CCOC(=O)CCCCCNC(=O)c1ccc(F)cc1F	-0.9%	.	.	.	-3.2	3.5%	.
Cc1cccn2c(=O)c3cc(C(=O)NC4CCCC4)c(=N)n(C4CCCCC4)c3nc12	.	.	3.3	16.9%[15.4 µM]	2.3	12.1%	11.0%
COC(=O)C1=C(C(=O)OC)[C@@H]2N(Cc3ccccc3)c3ccccc3[C@@]23C[C@@H](C(=O)OC)N(C(=O)c2cc(C)oc2C)C3=N1	1.7%	-1.8[11.7 µM]	.	-30.5%[inhibitor]	-9.5	-11.6%	18.0%
C=CCN(C(=O)CCC(=O)Nc1cc(C)on1)C(C(=O)NC(C)(C)CC)c1cccc(OC)c1OC (stereo not given)	.	.	6.3	22.3%	-5.3	3.1%	5.1%
COc1ccc(C2(C(=O)Nc3ccc(OC)cc3OC)CCCC2)cc1	.	-1.3	-2.4	-16.6%[15.4 µM]	-5.7	-6.8%	8.9%
CC(C)(C)C1CCc2onc(C(=O)O)c2C1 (stereo not given)	.	0.3	24.6	7.0%	-0.1	-4.0%	22.9%
CC(C)C(=O)Nc1cccc(NC(=O)c2cccc([N+](=O)[O-])c2)c1	-0.1%	0.9	-18.0	0.0%	6.8	-2.3%	20.6%
Cc1cc(=O)oc2cc(OCC(O)Cn3ccnc3)ccc12 (stereo not given)	.	4.2	-12.5	-4.6%	-0.7	-5.9%	13.1%
CN(CC(O)COC(c1ccccc1)c1ccccc1)C1CCCCC1 (stereo not given)	.	-5.2	-1.9	-25.8%[15.4 µM]	-15.3	11.8%	-20.1%
CN(C(=O)COc1cc(=O)n(C)c2ccccc12)c1ccc(Br)cc1	-2.3%	11.6	?	-22.2%	-1.4	4.4%	-10.4%
O=C(NCc1ccccc1)C(c1ccccc1)N(C(=O)c1csnn1)c1ccc(F)cc1 (stereo not given)	.	0.0	10.6	2.1%[15.4 µM]	0.1	.	7.8%

Results in Menin-MLL FL inh, for some of the entries so far:
canonical_smiles	Menin-MLL FL inh
CN(C(=O)COc1cc(=O)n(C)c2ccccc12)c1ccc(Br)cc1	11.6
O=C(NCc1ccccc1)C(c1ccccc1)N(C(=O)c1csnn1)c1ccc(F)cc1 (stereo not given)	0.0

(next part)
SMILES	ClpP mod	Menin-MLL FL inh	TRPV1 potentiator	gsp agonist	D2 PAM	gsp antag	Sfp PPTase inh
CC(C)CCOc1ccc(C(=O)CCNC(C)C(=O)O)cc1 (stereo not given)	.	2.8	-9.8	.	.	.	-10.5%
COCCNC(=O)c1cccc(S(=O)(=O)N2CC3(C)CC2CC(C)(C)C3)c1 (stereo not given)	-1.8%	.	-7.8	-23.8%	0.2	3.5%	.
CC1CCCCC1NC(=O)CSc1nnc(C(F)(F)F)n1C (stereo not given)	0.5%	.	.	9.3%	-8.4	.	.
CCOc1ccc(CCN2C(=O)C3C4C=CC(C4)C3C2=O)cc1OCC (stereo not given)	-3.6%	-1.2	-4.5	5.5%	-5.5	7.5%	12.9%
Cc1ccc(S(=O)(=O)N2CCCC2C(=O)O)s1 (stereo not given)	-0.4%	0.6	3.2	2.8%	-9.5	6.7%	16.1%
CN(CCc1ccccc1)C(=O)c1ccc(NC(=O)Cc2ccc(NC(=O)C3CCCN(S(=O)(=O)c4cccc([N+](=O)[O-])c4)C3)cc2)cc1 (stereo not given)	-2.4%	.	.	.	2.8	1.0%	.
Cc1ccc(CNS(=O)(=O)c2ccc(F)c(F)c2)n1C	.	4.4	10.0	-26.4%	-0.2	2.7%	4.8%
Cc1c(Br)c([N+](=O)[O-])nn1C(C)C(=O)NCc1ccco1 (stereo not given)	0.9%	3.7	-7.2	-0.7%[15.4 µM]	-12.8	5.9%	7.5%
Cc1cc(C(=O)CN2C(=O)C(=O)N(C)C2=O)c(C)n1-c1cccc(S(=O)(=O)N2CCOCC2)c1	.	18.7	-9.8	18.6%[15.4 µM]	0.0	-1.8%	0.2%
Cc1ccc2nc(SCC(=O)Nc3cccc(S(N)(=O)=O)c3)[nH]c2c1	0.8%	0.6	27.3	10.7%	-11.3	4.3%	-14.9%
COc1ccc(CCNC(=O)CSc2nnnn2-c2ccc(OC)c(OC)c2)cc1OC	.	0.3	6.0	27.7%[15.4 µM]	-4.1	4.8%	22.2%

Source: PubChem BioAssay

Rows were taken by chance. Share with any hit: about 5.1%.
